Screening data: PubChem, ICCB-Longwood Screening Facility, Harvard Medical School
HCMV NEC inh: inhibitors of HCMV UL50-UL53 interaction, biochemical, HTRF; HCMV UL50-UL53 nuclear egress complex (human cytomegalovirus); normalized percent inhibition; AID 1918969, 2023; inhibition, % (no concentration beside the values); 190,000 compounds, 0.15% hits;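 active means both replicates at 50% or more, plus weaker picks with an unusually low signal ratio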;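 further: stock transfer was 100 nL into about 20 µL; 0% = negative control wells and 100% = wells with untagged competitor protein; inactives centre near -12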
GIV Gai3 FP: inhibitors of GIV peptide binding to Galpha-i3, primary screen, biochemical, fluorescence polarization, FITC-GIV GBA peptide, rat Galphai3 | 90 min; active compounds read low; scaled: aluminum fluoride 0%, vehicle 100% | 210,000 compounds, 0.42% hits | percent of control (FP), % (concentration not given with the values);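 active means replicate mean at 85% of control or lower, very high polarization wells dropped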;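 further: wells of about 15 µL received 100 nL stock; the first replicate is given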
Target sequence (P08753 whole entry, looked up): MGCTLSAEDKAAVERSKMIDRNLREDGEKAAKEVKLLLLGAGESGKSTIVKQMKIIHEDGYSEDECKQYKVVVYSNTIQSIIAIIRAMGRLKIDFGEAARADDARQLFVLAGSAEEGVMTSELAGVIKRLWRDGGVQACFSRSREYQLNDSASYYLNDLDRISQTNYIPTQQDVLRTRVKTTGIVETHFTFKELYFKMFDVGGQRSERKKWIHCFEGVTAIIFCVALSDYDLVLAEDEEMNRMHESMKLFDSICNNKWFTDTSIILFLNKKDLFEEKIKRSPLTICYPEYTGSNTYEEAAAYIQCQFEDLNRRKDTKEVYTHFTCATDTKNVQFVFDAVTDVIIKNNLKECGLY
Sa growth inh: S. aureus growth inhibition at 42 and 30 °C, primary screen, LtaS inhibitor project, RN4220, two temperatures. OD600, 20 h, 42 °C; active compounds read low. relative growth, % (test concentration not listed). 170,000 compounds, 0.53% hits;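 active means growth at 42 °C up to 50% and 20 or more points under that at 30 °C, or under 10% at both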;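 further: 300 nL library stock went into each well; scaled to the means of positive and negative controls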
Sa growth inh second temp: further read-out of Sa growth inh, marked with its call; relative growth, %; measured here: growth at 30 °C;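 optical density after 20 h as mean of two plates; 100% = untreated growth and lower means inhibition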
An asterisk follows results filed as active; / = no result given; & = joins results of further samples. An unsorted share of the library. About 0.82% of those tested had a hit in this group.

Sample of the layout:
Compound	Sa growth inh second temp	GIV Gai3 FP	Sa growth inh	HCMV NEC inh
CN(C)c1ccc(C(CNC(=O)C2CC2)N2CCN(c3ccccc3)CC2)cc1 (configuration not stated)	/	104	/	3
COc1ccc(CC(=O)N2CCc3ccccc3C2)cc1	86	98	111	/

Main list, previewed entries included:
Compound	Sa growth inh second temp	GIV Gai3 FP	Sa growth inh	HCMV NEC inh
CN(C)c1ccc(C(CNC(=O)C2CC2)N2CCN(c3ccccc3)CC2)cc1 (configuration not stated)	/	104	/	3
COc1ccc(CC(=O)N2CCc3ccccc3C2)cc1	86	98	111	/
COc1ccc(S(=O)(=O)N2CCN(CCN3C(=O)c4cccc5cccc(c45)C3=O)CC2)cc1	/	104	/	-14
N#CCC(=O)Nc1ccc(C(=O)O)cc1	80	/	108	-62
C=CCN(CC=C)S(=O)(=O)c1ccc(C(=O)Nc2nc3c(ccc4ccccc43)s2)cc1	/	107	/	-26
CN(C)c1ccsc1C(=O)NN	90	99	94	-21
COc1ccc(N2CCN(c3ncnc4c3cnn4C)CC2)cc1	80	101	122	/
COc1cccc(Nc2nc(C3(C)CC4(CC(C)OC4=O)C(=O)O3)cs2)c1 (configuration not stated)	96	93	95	11
Cc1ccc(-c2onc(C)c2C)cc1S(=O)(=O)NCc1ccc(N(C)C)cc1	81	99	95	/
CC(C(=O)Nc1ccc2c(c1)OCO2)N(C)CC1COc2ccccc2O1 (configuration not stated)	101	/	117	-5
O=C(CC1CCCCC1)Nc1cccnc1	85	100	101	2
COC(=O)c1cc(OC)c(OC)cc1NCC(=O)Nc1ccc(C)cc1	90	/	88	5
CCc1n[nH]c(=O)c2cc3cc(OC)ccc3n12	90	97	104	-8
O=C(COC(=O)c1ccco1)NC(c1ccccc1)c1ccccc1	91	/	92	-21
Cc1ccccc1NC(=O)c1ccccc1NC(=O)c1ccccc1Cl	87	104	101	-32
CCc1nnc(SCC(=O)N(CC)c2ccccc2)c2cc3occc3n12	59	103	115	/
O=C(Nc1ccc(F)cc1)C1CCCN(c2ncnc3c2nc2n3CCCCC2)C1 (configuration not stated)	81	100	115	/
COc1ccccc1CC(=O)Nc1nncs1	82	/	79	10
O=C(O)CCC(=O)N1N=C(c2ccc([N+](=O)[O-])cc2)CC1c1ccc(Br)cc1 (configuration not stated)	/	107	/	-118
O=c1oc(-c2cccnc2)nc2sc3c(c12)CCCCC3	115	/	99	-4
CCCCCn1c(CN2CCN(c3ccc(OC)cc3)CC2)nc2c1c(=O)[nH]c(=O)n2C	86	100	105	10
O=C(O)CCC(=O)Nc1nccs1	101	/	110	-20&20
CCC12CN3CC(C)(CN(C1)C3c1c[nH]c3ccccc13)C2=O (configuration not stated)	87	99	93	-33
CC1(C)Cc2c(c(N3CCOCC3)nc3sc4c(ncn5c(SCC(=O)NCc6ccco6)nnc45)c23)CO1	104	105	105	-6
CCC(Sc1nnc2c3ccccc3n(CC)c2n1)C(=O)NC(C)c1ccccc1 (configuration not stated)	71	98	75	/
CCn1c(=O)c2c(nc3n2CC(C)CN3c2ccc(Br)cc2)n(C)c1=O (configuration not stated)	/	100	/	-28
Cc1ccccc1-c1noc(-c2ccccc2C)n1	80	95	97	6
O=C(Nc1ccccc1)Nc1cccc(Cl)c1	42	98	37	-16
Cc1n[nH]c(C)c1C(C)C(=O)Nc1cccc(Cl)c1 (configuration not stated)	/	107	/	-15
COc1ccc(N2CCN(c3ncnc4sc(C(=O)N5CCC6(CC5)OCCO6)c(C)c34)CC2)cc1	/	111	/	-21
CCSc1nc2c(c(=O)n1Cc1ccccc1)SC(C)C2 (configuration not stated)	82	94	85	-31
O=S(=O)(Nc1cccc(-c2ncon2)c1)c1ccc(F)cc1F	90	95	100	0
Cc1ccccc1CNC(=O)CCc1cn(Cc2ccccc2C)c2ccccc12	90	106	109	/
Cc1cc(C)cc(NC(=O)C2CCN(S(=O)(=O)c3cccc(-c4noc(C)n4)c3)CC2)c1	94	108	105	/
CC(NC(=O)CC1=NS(=O)(=O)c2ccccc2N1)c1ccccc1 (configuration not stated)	83	108	92	-5
CC1CC(C)CN(C(=O)CN2C(=O)CCCc3ccccc32)C1 (configuration not stated)	/	108	/	-9
CCc1ccc(Nc2ncnc3c2cnn3C)cc1	22	97&99	38	-2
Cc1nn(CCCC(=O)NCc2cccc(Cl)c2)c(=O)c2c1sc1ccccc12	98	106	120	-19
O=C(CC1(O)C(=O)Nc2ccccc21)CC1(O)C(=O)Nc2ccccc21 (configuration not stated)	79	102	97	/
Cc1cccc(C)c1OCC(=O)N(Cc1ccccc1F)C1CCS(=O)(=O)C1 (configuration not stated)	87	100	109	6
CCOC(=O)C1CCN(C(c2ccc(SC)cc2)c2c(O)cc(C)n(Cc3ccco3)c2=O)CC1 (configuration not stated)	97	108	116	/
O=S(=O)(c1ccsc1)c1ccsc1	82	/	105	-16
CCc1ccc(Sc2cc(C(=O)O)c3ccccc3n2)cc1	78	101	119	/
O=S(=O)(c1cccc(C(F)(F)F)c1)N1CCCN(CCc2ccccc2)CC1	99	111	100	-15
Cc1cc(NC(=O)c2[nH]c(C)c(S(=O)(=O)N3CCCCC3)c2C)ccc1Br	/	107	/	-42
O=C(CSc1nccc(-c2ccco2)n1)Nc1ccccc1Cl	96	109	87	4
O=S(=O)(NCc1ccco1)c1cccc(S(=O)(=O)N2CCCCC2)c1	95	107	97	-9
COc1ccc(Cl)cc1S(=O)(=O)N(C)CC(N)=O	87	105	103	-12
COc1ccccc1NC(=O)CSCC(N)=O	107	109	104	13
COC(CNS(=O)(=O)c1cn(C)c(=O)n(C)c1=O)OC	100	107	101	-2
C=CCN1C(=O)/C(=C/c2c(N3CCCCC3)nc3ccccn3c2=O)SC1=S	90	-36*	99	/
CCOCCOC(=O)C1=C(C)NC(=O)NC1c1ccc(OCc2ccccc2)cc1 (configuration not stated)	/	98	/	-5
O=c1c(C=Nc2ccccc2)c(O)c2c(n1-c1ccccc1)CCCC2	86	106	108	/
CCc1ccc(-c2nc3c(C#N)c[nH]n3c2NC2CCCCC2)cc1	81	106	80	/
CCN(C(=O)Nc1cc(C)cc(C)c1)c1nc(-c2ccc(Br)cc2)cs1	/	103	/	-31
CC1(C)CC2CC(C)(CN2C(=O)COCc2cc(-c3ccco3)on2)C1 (configuration not stated)	39	214	106	-41

Additional structures
Compound	Sa growth inh second temp	GIV Gai3 FP	Sa growth inh	HCMV NEC inh
Cc1ccc2oc(=O)c3cc(C(=O)NCCN4CCc5ccccc5C4)sc3c2c1	83	102	87	-6
Cc1cc(OCc2c(C)c(C)c(C)c(C)c2C)c2cc(Cl)ccc2n1	53	107	100	-14
CS/C(=C\C(=O)c1cccs1)NCc1ccccc1	83	108	84	-1
O=C(CCC(=O)N1CCc2cc(S(=O)(=O)N3CCOCC3)ccc21)N1CCOCC1	/	98	/	-5
COC(=O)c1ccc(C2OCC(C)(C)CO2)cc1	99	/	96	5
Cc1ccc(C(c2sc3ncnn3c2O)N2CCN(CCO)CC2)cc1 (configuration not stated)	91	95	94	-24
Cc1ccc(S(=O)(=O)N2CCCC2C(=O)Nc2ccc(C)cc2C)cc1 (configuration not stated)	99	99&100	100	-6
Cc1ccc(-c2csc(NC(=O)Nc3ccccc3)n2)cc1	90	102	88	/
O=C(N/N=C/c1ccc(N2CCCCC2)o1)c1ccco1	95	103	97	-45
Cc1c(C)n(Cc2ccccc2)c2ccc(C(=O)NCc3ccco3)cc12	93	102	107	/
COc1ccc(NC(=O)CSc2nc3c(oc4ccccc43)c(=O)n2Cc2ccco2)cc1Cl	94	100	96	12
Cc1ccccc1-c1nc(CS(=O)(=O)CC(=O)N(C)Cc2ccccc2)c(C)o1	86	101	103	-6
Cc1ccc(NC(=O)COC(=O)CCc2ccco2)cc1C	94	/	99	-6
COc1ccc(S(=O)(=O)NCc2ccc(C(=O)NC3CCCCC3C)cc2)cc1 (configuration not stated)	73	103	84	/
O=c1[nH]c2ccccc2c(=O)n1CCSc1ccccc1	79	103	118	-41
COC(=O)c1ccc(-c2ccco2)n1CC(=O)NCc1ccc(Cl)cc1	98	100	95	5
CCCC(=O)Nc1cccc(OCc2cc(=O)n3cccc(C)c3n2)c1	91	106	97	/
CCOC(=O)c1c(NC(=O)CN2C(=O)/C(=C/c3ccc(OC)c(OC)c3)SC2=S)sc2c1CCCC2	/	102	/	-14
COc1cc(NC(=O)CCc2ccccc2)nc(OC)n1	88	96	97	-9
Cc1nc(N2CCCC2)c2c(C(=O)N3CCN(c4cccc(Cl)c4)CC3)c(C)oc2n1	79	105	86	/
O=C(NCc1cccc(CNC(=O)NCc2ccco2)c1)NCc1ccco1	96	/	93	-17
O=C(O)c1cc(S(=O)(=O)NCCN2CCOCC2)ccc1O	98	/	118	-1
C=Cc1ccc(Cn2c(C(=O)O)c(CNC3CCCC3)c3ccc(C)cc32)cc1	90	107	93	/
CC1CN(C(=O)CCC(=O)NCc2cccs2)c2ccccc2O1 (configuration not stated)	95	97	95	-13
CCC(=O)Nc1ccc(C(=O)Nc2c[nH]c(=O)[nH]c2=O)cc1	87	101	103	-6
COC(=O)Cc1nc(N2CCN(Cc3ccccc3)CC2)c2c(C)c(C)sc2n1	/	105	/	-21
O=C(O)C(Cc1ccc(O)cc1)N=Cc1cccc2ccccc12 (configuration not stated)	86	/	108	95*
CC(=O)Nc1ccc(N2Cc3ccccc3C2)cc1	73	107	89	-18
N#CC(C(=O)c1cccc(C(F)(F)F)c1)=C1SCCCCS1	83	98	88	-46
Cc1ccc(C2CC(=O)NC(SCc3ccccc3)=C2C#N)o1 (configuration not stated)	73	99	87	-35
CCOC(=S)SCc1cn2ccccc2n1	83	/	119	-17
O=c1ccc(-c2ccncc2)n[nH]1	83	101	93	-42

Whole records from above:
`Cc1ccc(C2CC(=O)NC(SCc3ccccc3)=C2C#N)o1` (configuration not stated) across the screens: Sa growth inh second temp = 73; GIV Gai3 FP = 99; Sa growth inh = 87; HCMV NEC inh = -35
`O=c1ccc(-c2ccncc2)n[nH]1` across the screens: Sa growth inh second temp = 83; GIV Gai3 FP = 101; Sa growth inh = 93; HCMV NEC inh = -42
`CCOC(=S)SCc1cn2ccccc2n1` across the screens: Sa growth inh second temp = 83; GIV Gai3 FP = /; Sa growth inh = 119; HCMV NEC inh = -17

(further entries)
Compound	Sa growth inh second temp	GIV Gai3 FP	Sa growth inh	HCMV NEC inh
O=C(NCc1ccc2c(c1)OCO2)C1CC(=O)N(C2CCCCC2)C1 (configuration not stated)	103	103	103	10
O=C(Nc1cc(C(F)(F)F)ccc1Cl)c1cnn(-c2ccccc2)c1-n1cccc1	98	98	64	/
CCCOC(=O)CSc1nnc2ccc3ccccc3n12	82	106	101	-17
N#CCn1ccccc1=O	88	101	94	-40
Fc1ccc(C2Nc3c(ccc(Cl)c3Cl)C3C=CCC32)cc1 (configuration not stated)	/	106	/	-23
NC(=O)c1cccc(N=Cc2ccc3ccccc3c2)c1	82	/	82	-35
COc1ccc(COc2ccc(=O)n(-c3ccc(C(=O)Nc4ccc(OC)c(OC)c4)cc3)n2)cc1	/	108	/	-41
Cc1cc(C)c(C(N)=O)c(=O)[nH]1	91	/	86	-10
O=C(OCCOc1cccc(Cl)c1)C1CCN(S(=O)(=O)c2cccs2)CC1	88	/	100	-21
CC(C)NCC(O)COc1ccc(S(=O)(=O)N2CCOCC2)cc1 (configuration not stated)	89	/	87	-9
CN(C)S(=O)(=O)c1cccc(COC(=O)/C(=C/c2cccs2)c2cccs2)c1	110	/	116	-8
Cc1cc(=O)c2cc(N)ccc2[nH]1	91	103	104	-21
CC(=O)N/C(=C\c1ccc(OC(F)(F)F)cc1)C(=O)O	92	104	92	-7
CC(C)CCNC(=O)CCCCn1c(=O)c2ccccc2n(CC(=O)Nc2ccccc2Cl)c1=O	/	106	/	-3
CCCCN1C(=O)c2ccccc2C1C(=O)NC1CCCC1 (configuration not stated)	97	99	101	-13
O=C(O)C(Cc1cccs1)c1ccccc1 (configuration not stated)	98	106	122	-15
O=[N+]([O-])c1ccccc1Nc1nc(OCC(F)(F)F)nc(OCC(F)(F)F)n1	/	100	/	-27
CC(C)NC(=O)c1cc2c(s1)-c1ccccc1OC2	84	108	106	-20
CC(CCc1ccccc1)NC(=O)C(C)N1CCNC(=O)C1 (configuration not stated)	96	/	95	-5
CC(C(=O)N1CCCc2ccccc21)n1cnc2onc(-c3ccc(Cl)cc3)c2c1=O (configuration not stated)	/	101	/	-22
Cc1cc(C)cc(NC(=O)C(NS(=O)(=O)c2cccc3nsnc23)c2ccccc2)c1 (configuration not stated)	91	108	105	-76
